# PABP FP inh: PABP poly(A) RNA binding inhibitors, primary screen, biochemical, fluorescence polarization, uHTS; Polyadenylate-binding protein 1 (Homo sapiens), P11940; inhibition, % at 35 µM; 1% of 290,000 active; AID 2014, 2009;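 active = 50% or more with normal probe brightness, or confirmed in later tests; inconclusive = above 50% with abnormal brightness, or retests that disagree; inactive = below 50% or failed in later tests; about a fifth of its hits are not listed in these tables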;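 also: calls also rest on retests at 20 µM and on dose response follow-up; controls were probe without protein and protein plus probe with vehicle; some compounds called inactive have numbers as strong as hits; many hits fall short of the cut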
# Target sequence (P11940 whole entry, looked up): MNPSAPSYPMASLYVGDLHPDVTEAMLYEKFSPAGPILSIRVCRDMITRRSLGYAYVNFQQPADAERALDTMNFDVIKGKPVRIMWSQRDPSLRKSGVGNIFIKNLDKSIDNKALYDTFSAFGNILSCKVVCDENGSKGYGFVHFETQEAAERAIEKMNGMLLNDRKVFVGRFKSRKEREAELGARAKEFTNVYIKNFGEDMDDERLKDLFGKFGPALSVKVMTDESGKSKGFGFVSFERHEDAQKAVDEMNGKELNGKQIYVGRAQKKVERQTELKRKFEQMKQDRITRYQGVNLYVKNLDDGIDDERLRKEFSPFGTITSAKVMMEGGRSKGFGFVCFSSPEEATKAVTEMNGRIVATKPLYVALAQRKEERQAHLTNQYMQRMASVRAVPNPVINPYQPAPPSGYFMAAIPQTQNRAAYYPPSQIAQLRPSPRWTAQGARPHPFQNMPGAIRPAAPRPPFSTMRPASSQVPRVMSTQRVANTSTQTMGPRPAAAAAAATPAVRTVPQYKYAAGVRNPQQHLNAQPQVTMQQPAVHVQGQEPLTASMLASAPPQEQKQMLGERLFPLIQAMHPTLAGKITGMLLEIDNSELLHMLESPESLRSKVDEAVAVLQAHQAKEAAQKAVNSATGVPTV
# Yeast UUG start: modulators of yeast start codon fidelity, primary screen, whole organism, S. cerevisiae, single point, plate reader; S. cerevisiae UUG-firefly luciferase reporter, luminescence/redox ratio; activity score, % at 18.7 µM; 0.13% of 350,000 active; AID 602363, 2012;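 active = replicate mean at a twofold rise or more, about +100% in these data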;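 also: firefly luciferase made from a UUG start codon reports start codon fidelity; reporter light over untreated wells divided by growth signal over untreated wells; some hits fall short of that in this replicate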
# Rce1 inhib: yeast Rce1p protease inhibitors, primary screen, biochemical, fluorescence, cell-free homogeneous. yeast membranes, quenched prenylated peptide cleavage fluorescence. calls only. 0.27% of 290,000 active;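 active = fall in fluorescence gain of 50% or more versus controls, with final raw signal at or below 3038400; inconclusive = same 50% fall but final raw signal above 3038400; inactive = fall in fluorescence gain under 50%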;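 also: plate controls were neutral control wells for no effect and wells lacking membranes for full effect; tested at 10 µM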
# Target sequence (Q03530 whole entry, looked up): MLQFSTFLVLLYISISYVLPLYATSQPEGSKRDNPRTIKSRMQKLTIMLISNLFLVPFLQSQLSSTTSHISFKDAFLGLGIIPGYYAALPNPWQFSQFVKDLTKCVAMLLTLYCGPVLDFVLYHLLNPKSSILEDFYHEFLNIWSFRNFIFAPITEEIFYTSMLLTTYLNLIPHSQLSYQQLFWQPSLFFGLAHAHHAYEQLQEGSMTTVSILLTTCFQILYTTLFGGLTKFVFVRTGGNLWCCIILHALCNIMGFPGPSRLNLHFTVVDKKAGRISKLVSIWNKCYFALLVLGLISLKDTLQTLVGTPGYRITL
# Env fusion inh: inhibitors of HIV-1 Env-driven cell-cell fusion, primary screen, HeLa-JRFL effector, CEM21 target cells, luciferase; AID 651610, 2012; inhibition, % at 12.3 µM; 1.1% of 360,000 active;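 active = mean replicate inhibition score of at least 50 and every replicate individually at or above 50; inconclusive = only one of the two criteria met; inactive = mean below 50 and not all replicates reaching 50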;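 also: 0% = plate neutral controls and 100% = maraviroc near 300 nM; one replicate is shown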
# CSC inhib: cancer stem cell viability inhibitors, primary screen, luminescence | cancer stem cell-like cells viability | inhibition, % at 7.5 µM | 1.1% of 300,000 active;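 active = mean at 75% or more and at least half the replicates too; inconclusive = mean and replicates disagree; tested in HMLE shEcad cells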;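 also: 0% = median of negative and 100% = median of positive control wells; the first replicate is given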
# eIF4H FP inh: human eIF4H binding inhibitors, primary screen, translation initiation inhibitor project, biochemical, uHTS, fluorescence polarization; Eukaryotic translation initiation factor 4H (Homo sapiens), Q15056; eIF4H fluorescence polarization binding assay; inhibition, % at 35 µM; 0.94% of 290,000 active;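 active = 50% or more with normal probe brightness, or confirmed in later tests; inconclusive = above 50% with abnormal brightness, or retests that disagree; inactive = below 50% or failed in later tests; about a fifth of its hits are not listed in these tables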;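 also: calls also rest on retests at 20 µM and on dose response follow-up; 0% = protein and probe with vehicle and 100% = probe without protein; strong numbers were not always called active; many hits fall short of the cut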
# MT1-MMP act inh: blockers of MT1-MMP proenzyme processing, primary screen, HT1080 RFP-PRO-GFP cells, GFP/RFP fluorescence; GFP/RFP ratio fluorescence, overnight; percent of plate control window, DMSO zero; GFP/RFP ratio change, % at 20 µM; 0.061% of 360,000 active; AID 651647, 2012;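 active = GFP/RFP ratio change of at least 30% with cell ATP level not reduced by more than half and red fluorescence within 50% of control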; also: strong numbers were not always called active
#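 Assay system: HT1080 cells carrying an RFP-PRO-GFP reporter | Dosing: Single dose of 20 µM compound, 1% DMSO final | Incubation: Cells overnight before dosing, compound overnight, 37 °C, 5% CO2 | Evaluation: GFP/RFP fluorescence ratio | Control set: DMSO and RFP-L50D-GFP cell wells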
# eIF4H FP inh retest: further read-out of eIF4H FP inh, marked with its call; inhibition, %; compound at 20 µM; confirmation average;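 mean of two retest wells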
# PABP FP inh retest: further read-out of PABP FP inh, marked with its call; inhibition, %; compound at 20 µM; confirmation repeats;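 mean of two retest wells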
# MT1-MMP act inh RFP: second read-out of MT1-MMP act inh, no call of its own (marks repeat the call); RFP signal change, %; measured here: RFP expression control read;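 0 = vehicle wells; hits needed this value within 50% of zero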
# Numbers without * were called inactive; i = inactive; ? = inconclusive; nt = not tested or not shown.
SMILES,PABP FP inh,Yeast UUG start,Rce1 inhib,Env fusion inh,CSC inhib,eIF4H FP inh,MT1-MMP act inh,MT1-MMP act inh RFP,others
Cc1nn(CCc2n[nH]c(=S)n2-c2ccc(F)cc2)c(C)c1[N+](=O)[O-],0,nt,i,-30,-5,-11,-2,-1,
CCCCNC(=O)NNC(=O)C1CC1(c1ccccc1)c1ccccc1 (configuration not stated),-6,-17,i,-12,-10,-17,-2,-1,
COC(=O)c1cc2c(s1)-c1ccc(OC)cc1CC2,-2,nt,i,-82,-5,3,-2,-1,
CCOC(=O)c1c(C)[nH]c(C(=O)OCC(=O)NC(C)C)c1C,-12,nt,i,nt,4,5,-2,-4,
COc1ccc(NC(=S)N2CCC(NC(=O)c3ccc(F)cc3)CC2)cc1,-6,-11,i,-9,nt,-5,2,-2,
O=C(Nc1cccc2ccccc12)N1N=CCC1c1ccccc1 (configuration not stated),-6,-14,i,-2,-11,0,0,-1,
Cc1noc(C)c1S(=O)(=O)Nc1ccc(C(=O)N2CCN(c3cccc(Cl)c3)CC2)cc1,2,5,i,11,8,-1,0,-1,
CC(=O)Nc1ccc(N(C(=O)c2cnccn2)C(C(=O)NC2CCCCC2)c2ccc(O)cc2)cc1 (configuration not stated),-5,1,i,nt,-3,-4,-4,4,
CCS(=O)(=O)Nc1cccc(C2=NN(S(=O)(=O)CC)C(c3cccs3)C2)c1 (configuration not stated),-12,-11,i,-6,-19,-18,-6,1,
CC(C)CCN1CCN=C1Nc1ccccc1,-2,-6,i,60*,0,-9,1,2,
CCOc1cc(/C=N/NC(=O)c2cc(C)n(-c3ccc(F)cc3)c2C)ccc1O,5,-22,i,21,5,5,5,5,
Cc1nnsc1C(=O)NCc1c(F)cccc1Cl,13,-2,i,9,3,1,-3,2,
Cc1ccc(Oc2ccccc2)c(NC=O)c1,1,nt,i,nt,15,-8,2,7,
Cc1ccc(-c2cn(CCC(=O)O)c(-c3ccc(Cl)nc3)n2)cc1,nt,-8,nt,-8,2,nt,5,2,
O=C(CSc1ccccc1)NC1=NCCS1,3,nt,i,4,1,-6,7,5,
O=C(CNC(=O)c1ccc(F)cc1)c1ccccc1,10,1,i,-16,-16,-6,0,3,
COc1cc(C2c3c(oc4c(C)cc(C)cc4c3=O)C(=O)N2Cc2cccnc2)ccc1O (configuration not stated),nt,0,i,25,-5,nt,-1,-3,
Cc1ccsc1C(=O)N1CC(=O)Nc2ccccc21,-10,2,i,nt,1,5,-4,3,
OC[C@@H]1CN(Cc2ccc(F)cc2)C[C@H](n2cnc3c(N4CCN(c5ccccc5)CC4)ncnc32)O1,nt,23,nt,20,nt,nt,1,-15,
NS(=O)(=O)c1ccc(NC(=O)Nc2ccc(S(N)(=O)=O)cc2)cc1,-4,-11,i,-14,-32,0,-3,-6,
CCC(c1nnnn1Cc1ccccc1)N1CCN(C(=O)c2ccco2)CC1 (configuration not stated),-16,-4,i,nt,-18,-3,1,3,
Cc1nc2cc(C(=O)O)ccc2n1C1CCCCC1,6,-12,i,nt,6,2,7,3,
O=C(O)CCCNC(=O)Nc1ccccc1,-15,-8,i,-38,-17,-11,-1,4,
COc1ccccc1NC(=O)c1ccc(NC(=O)COC(=O)c2ccc(O)cc2)cc1,nt,-3,nt,nt,-11,nt,-1,2,
Cc1ccc(S(=O)(=O)N2CCN=C2SC(C)c2ccccc2)cc1 (configuration not stated),3,-6,i,15,-2,-8,0,-4,
SMILES,PABP FP inh,Yeast UUG start,Rce1 inhib,Env fusion inh,CSC inhib,eIF4H FP inh,MT1-MMP act inh,MT1-MMP act inh RFP,others
CCOc1ccccc1OCC(=O)NNC(=O)Cn1cnc2c1c(=O)n(C)c(=O)n2C,12,6,i,19,11,-8,-4,2,
CNc1nc2c(-c3ccc(Cl)cc3)nnn2c2ccccc12,0,-5,i,17,15,5,2,2,
CC(=O)OCC(=O)Nc1c(C)cc(C)cc1C,-6,nt,nt,-16,7,4,-1,2,
O=C(CNS(=O)(=O)c1ccc(F)cc1)N1CCN(c2ccc(F)cc2)CC1,9,-16,i,-31,nt,4,7,0,
Cc1c(Cl)cccc1NC(=S)N1CCc2ccccc2C1,5,nt,i,8,10,-6,2,-7,
COc1cc(CNC(C)(C)CO)cc(Br)c1OCc1ccc(Cl)cc1Cl,-8,nt,i,-6,?,-5,-9,-6,
COc1ccc(OCC(=O)O/N=C(\N)c2ccc(OC)cc2)cc1,1,nt,i,-14,-7,-9,0,-1,
CCOC(=O)C(=CNc1ncccc1C)C(=O)OCC,-8,-10,i,nt,-7,2,1,3,
O=C1CC(=O)N(c2ccccc2)N1c1ccccc1,2,nt,i,nt,-4,?,-1,7,
O=C(c1c(F)c(F)c(F)c(F)c1F)N1CCN(c2cccc(C(F)(F)F)c2)CC1,12,-22,i,-58,46,-11,-2,-9,
C=CCn1c(-c2cccc(S(=O)(=O)N(CC)CC)c2)n[nH]c1=S,7,-15,i,2,-10,5,3,0,
CC(C)CN(C(=O)CSc1nc2ccccc2c(=O)[nH]1)c1c(N)n(CC(C)C)c(=O)[nH]c1=O,nt,5,nt,4,-18,nt,-1,-3,
Cc1cc(=O)[nH]c(SCC(=O)c2ccc(F)c(C)c2)n1,7,2,nt,-64,-3,2,2,0,
O=C(NCc1ccccc1Cl)C1CCCN(S(=O)(=O)c2cccc3nonc23)C1 (configuration not stated),-1,-3,nt,2,-3,-8,1,-2,
COc1ccc2[nH]c(C)c(CCNc3ccc(C(F)(F)F)cc3[N+](=O)[O-])c2c1,-8,8,i,10,53,5,7,-6,
ClCC1NCC(c2ccccc2Cl)c2c1[nH]c1ccccc21 (configuration not stated),1,nt,i,-2,20,-8,37*,50*,
CC(c1ccccc1)n1c(-c2ccc(C(C)(C)C)cc2)n[nH]c1=S (configuration not stated),-4,-9,i,nt,3,-5,0,-11,
COc1ccc(N2CCN(c3oc(-c4ccccc4OC)nc3C#N)CC2)cc1,12,2,nt,nt,nt,10,13,-1,
O=C(Nc1ccc(F)cc1)N1CCC(c2nc3c(nnn3Cc3cccc(Cl)c3)c(=O)[nH]2)CC1,1,13,nt,39,20,-7,6,-11,
O=C(CSc1nnnn1-c1cccc(F)c1)Nc1nc2ccccc2s1,9,-6,i,nt,nt,-8,6,4,
O=C(NCc1ccco1)C1CCC(N2C(=O)c3ccccc3C2=O)CC1 (configuration not stated),1,nt,i,nt,-13,-6,5,2,
CC(=O)NS(=O)(=O)c1ccc(NS(=O)(=O)c2ccc(F)cc2)cc1,4,nt,i,nt,nt,-3,-1,-2,
CC(=O)Nc1ccc(S(=O)(=O)Nc2nc3ccccc3nc2-n2ccc(=NC(=O)c3ccccc3)cc2)cc1,8,2,i,18,-6,39,-2,-3,
COc1ccc(S(=O)(=O)NCCN2CCOCC2)cc1[N+](=O)[O-],-2,-15,i,0,-13,-14,-3,2,
Cc1nn(-c2ccccc2Cl)c(Cl)c1/C=N/Nc1cccc(C(=O)O)c1,-13,nt,i,46,12,-5,2,1,

# By substructure, the entries above with a nitro group on carbon (three)
SMILES,PABP FP inh,Yeast UUG start,Rce1 inhib,Env fusion inh,CSC inhib,eIF4H FP inh,MT1-MMP act inh,MT1-MMP act inh RFP,others
Cc1nn(CCc2n[nH]c(=S)n2-c2ccc(F)cc2)c(C)c1[N+](=O)[O-],0,nt,i,-30,-5,-11,-2,-1,
COc1ccc2[nH]c(C)c(CCNc3ccc(C(F)(F)F)cc3[N+](=O)[O-])c2c1,-8,8,i,10,53,5,7,-6,
COc1ccc(S(=O)(=O)NCCN2CCOCC2)cc1[N+](=O)[O-],-2,-15,i,0,-13,-14,-3,2,

# More compounds
SMILES,PABP FP inh,Yeast UUG start,Rce1 inhib,Env fusion inh,CSC inhib,eIF4H FP inh,MT1-MMP act inh,MT1-MMP act inh RFP,others
COc1cccc(NC(=O)CSc2nnc(NC(=O)c3ccco3)s2)c1,13,-13,i,0,5,65,-2,3,eIF4H FP inh retest=6;PABP FP inh retest=10
Cc1nc2c(C(=O)NCCc3ccccc3)c[nH]n2c(=O)c1Cl,8,nt,i,nt,5,-1,4,4,
Cc1cc(C)c2c(N)c3cccc(C)c3nc2n1,4,nt,i,-196,-4,9,-1,15,
COc1ccc(NC(=O)C(c2ccc(OC)cc2)N(C)C(=O)CNC(C)=O)cc1 (configuration not stated),12,-9,i,-40,2,-3,0,-5,
Cc1ccc(CNC(=O)CN(C(=O)C2(C)CC(=O)N=C3C=CC=CN32)c2ccccc2)cc1 (configuration not stated),-2,-4,?,-1,-8,-21,1,2,
N/C(=N/O)C(c1ccccc1)c1ccccc1,9,nt,i,nt,8,-6,2,8,
CCOC1=C2CN(S(=O)(=O)c3ccc(C)cc3)[C@H](c3ccccc3)C[C@@H]2N(S(C)(=O)=O)[C@H](c2ccccc2)C1,nt,-3,nt,23,nt,nt,1,-2,
Cc1cccc2nc3c(nc12)CCCC3,0,-13,i,12,nt,-17,2,4,
O=S(=O)(NCc1csc(-c2ccccc2)n1)c1ccc(Cl)s1,2,-11,i,-24,24,7,1,-6,
O=C(NCCS(=O)(=O)N1CCN(c2ccccc2)CC1)C12CC3CC(CC(C3)C1)C2,nt,-10,nt,12,nt,nt,-3,-5,
CCOC(=O)N1CCN(C(=O)CN(c2ccc(C)cc2)S(=O)(=O)c2c(C)noc2C)CC1,-8,8,i,-72,-24,-8,-2,2,
O=C(NCc1ccccc1Cl)c1ccc(CS(=O)(=O)c2ccccc2)o1,-2,-9,i,3,-8,-13,0,-3,
CCCN(CC(=O)Nc1ccccc1C)C(=O)c1ccc2[nH]c3c(c2c1)CC(C)CC3 (configuration not stated),nt,17,nt,16,nt,nt,1,-3,
Cc1nn(-c2ccc([N+](=O)[O-])cc2)c(N)c1-c1ccccc1,8,-17,i,-177,nt,-2,-13,-5,
COc1ccc(CC(=O)Nc2ccc(NC(=O)c3ccc(Br)cc3)cc2)cc1OC,5,-14,i,1,19,-13,1,-2,
COc1cc(/C=C(\C#N)c2ccccn2)ccc1OCC(=O)Nc1c(Cl)cccc1Cl,-2,-2,nt,-7,-10,0,2,0,
Cc1nnc(Sc2nc3c(c(=O)[nH]c(=O)n3C)n2CCc2ccccc2)s1,19,-25,i,-3,-4,-8,7,8,
O=C(COC(=O)c1ccccc1OCc1ccc(Cl)cc1)NCC1CCCO1 (configuration not stated),nt,-11,nt,-9,-7,nt,-2,-2,
COc1ccc(NC(=O)CN2c3cccc4cccc(c34)S2(=O)=O)cc1,-2,-12,i,nt,-3,-9,1,1,
COc1ccc(NC(=O)CCn2nnc(-c3ccc(C)cc3)n2)cc1OC,-1,-18,i,13,9,-8,1,-5,
COCc1cnc(C)nc1N,6,nt,i,4,-7,4,-1,0,
COc1ccc(NC(=O)CN(C)C(=O)/C=C/c2cn(-c3ccccc3)nc2-c2ccc(C)cc2)cc1,nt,-14,i,-14,11,nt,-5,-7,
O=C(NN/C(=N/S(=O)(=O)c1ccc(Cl)cc1)c1ccccc1)c1cccc(Cl)c1,0,-25,i,-103,-13,-4,2,1,
COc1ccc(NC(=O)CSc2nc3nc(C)cc(C)n3n2)cc1,0,-6,i,-2,nt,0,1,1,

# Bioassay records (PubChem)
